Source: PubChem BioAssay (ICCB-Longwood Screening Facility, Harvard Medical School)
AID504770 = E. coli YBA685 growth inhibition, screen for V. cholerae RctB inhibitors; AID 504770; z-score (concentration not given with the values); E. coli YBA685 rctB-dependent plasmid, OD600 growth, 3 h; stronger effect = lower value; 0.27% of 130,000 active;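 active = z-score under -2 on both plates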;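 also: wells of about 30 µL received 100 nL stock; score is relative to mean and SD of the test wells; the first replicate is given; strong numbers were not always called active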
Ba CapD inh = inhibitors of Bacillus anthracis CapD enzyme. purified CapD enzyme, fluorescence intensity read-out; stronger effect = lower value; some hits fall short of the stated cut. z-score (no concentration beside the values). 0.23% of 140,000 active. AID 492967;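 active = z-score under -4 in either of two replicates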;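 also: stock transfer was 100 nL into about 40 µL; score is relative to mean and spread of the plate; one replicate is shown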
* marks the source's active call; other numbers are inactive results; · = not tested or not shown; & = joins results of further samples.

structure,AID504770,Ba CapD inh
O=C(c1ccncc1)N1c2ccccc2Sc2ccccc21,-0.05,-0.7
CCOc1cc(CO)ccc1OCC(=O)Nc1ccc(C)c(Cl)c1,1.5,-0.8
Cc1ccc2c(CN3CCNC(=O)C3)cc(=O)oc2c1C,0.15,·
O=C(NCC1CCCO1)c1ccc2c(Cl)c3c(nc2c1)CCCC3 (stereo not given),0.25,-0.36
Cc1ccc(C2=NNC(c3cccc(C)n3)S2)cc1 (stereo not given),-1.1,0.43
Clc1ccc(C2Nc3cccc4cccc(c34)N2)c(Cl)c1,·,-0.085
CCOc1ccc(NC(=O)CSC2=C(C#N)C(c3cccs3)C3=C(CC(C)(C)CC3=O)N2)cc1 (stereo not given),1.2,-0.17
O=c1cc(CO)oc(C(Nc2ccccn2)c2ccc(F)cc2)c1O (stereo not given),-1.1,-1.5
Cc1nc2ccc(CCC(=O)O)cc2[nH]1,0.5,·
Fc1cccc(Cl)c1Cn1c(/C=C/c2ccccc2Cl)nc2ccccc21,·,18
CN(C)c1nc2c(=O)[nH]c(N)nc2n1[C@@H]1O[C@H](CO)[C@H](O)C1O (stereo not given in full),·,1.6
Cn1cc(/C=N/NC(=O)c2cccc([N+](=O)[O-])c2)c2ccccc21,·,0.04
Clc1ccc2nc(N3CCOCC3)nc(-c3ccccc3)c2c1,0.85,-0.18
COc1cccc(C2=NN(C(=O)c3ccccc3Cl)C(c3ccco3)C2)c1 (stereo not given),1.2,·
COC(=O)c1ccc(N=Cc2ccc(Br)s2)cc1,0.05,-0.35
COc1ccc(-c2cc(C(F)(F)F)nc(SCCC(=O)Nc3cc(C)on3)n2)cc1,0.55,·
COC(=O)Cc1nc(NC(=O)c2nc(-c3ccccc3)oc2C)sc1C,-0.4,0.56
Cc1ccc2c(c1)N(C(=O)C(Cc1ccccc1)N1C(=O)c3ccccc3C1=O)C(C)(C)c1ssc(=S)c1-2 (stereo not given),·,-1.1
Cn1c(/C(C#N)=C(\O)Cc2ccccc2)nc2ccccc21,0.35,·
Cc1cc(C)nc(SCC(=O)c2c[nH]c3ccccc23)n1,1,0.7
CCCCn1c(SCC(=O)Nc2ccccc2C(F)(F)F)nc2ccsc2c1=O,-0.35,-1.4
Clc1ccccc1-c1nc2ccccc2s1,1.7,-0.21
COC(=O)c1ccc(NC(=O)C2CC(=O)N(Cc3ccccc3)C(=Nc3ccc(OC)cc3)S2)cc1 (stereo not given),·,-0.085
NC(=O)c1cc(S(=O)(=O)N(CCc2ccncc2)CC2CCCO2)cs1 (stereo not given),-0.05,0.22
Cc1cc(C(=O)NN=C2CCCCC2)c2ccccc2n1,0.6,-0.24
c1ccc(-c2nnc(COc3ncnc4c3cnn4-c3ccccc3)o2)cc1,0,·
COC(=O)c1sc(NC(=O)c2cc3c(s2)CCCC3)nc1C,0.8,2.4
O=C(CC1Sc2ccccc2NC1=O)NN=Cc1ccccc1[N+](=O)[O-] (stereo not given),·,0.15
COc1ccc(OC)c(-n2c3nc(=O)[nH]c(=O)c-3cc3ccccc32)c1,·,-0.24
CCOC(=O)CN1CC23C=CC(O2)C(C(=O)NCc2ccc(F)cc2)C3C1=O (stereo not given),-0.7,-0.21
CN(CCc1c[nH]c2ccccc12)C(=O)c1csc(-c2cnccn2)n1,·,0.025
CC(C)(C)c1ccc(Oc2ncccc2NC(=O)c2cccc3ccccc23)cc1,·,-0.43
CC(C)(C)NC(=S)NN1C2CSC1CS2,-0.1,0.33
O=c1cc(Nc2cccc(C(F)(F)F)c2)nc[nH]1,-0.65,0.045
COc1cc(-c2nc(C=Nc3ccc(C)cc3Br)c(O)o2)cc(OC)c1OC,·,-0.82
CC/C(C)=N/Oc1nc(NC(=O)NS(=O)(=O)c2ccccc2Cl)nc(N(C)C)n1,-1.1,0.1
CCCCCCCC(=O)N1c2ccccc2C(N(C(=O)c2ccc([N+](=O)[O-])cc2)c2ccccc2)CC1C (stereo not given),·,-0.11
COc1ccc2oc(=O)cc(-c3cc4ccccc4o3)c2c1,-0.95,·
S=c1[nH]nc(-c2ccco2)n1-c1ccc(Br)cc1,·,-0.1&0.13
O=C(NCc1ccc2c(c1)OCO2)c1ccncc1,-0.8,·
CC1(C)c2ccccc2N(c2ccccc2)C12C=Cc1cc(Br)ccc1O2 (stereo not given),·,-0.32
Clc1ccc2c(c1)c1cc(Cl)ccc1n2CN1CCCCC1,-0.85,0.77
N#Cc1c(N2CCOCC2)sc(C(=O)O)c1-c1ccc(Cl)cc1,-1.1,-0.78
O=C(Nc1ccc(N2CCCCC2)cc1)c1ccc(F)cc1,2.2,-0.54
O=C(O)C1C2C=CC(O2)C1C(=O)Nc1cccc(C(F)(F)F)c1 (stereo not given),-1.4,-0.01
CCCC(=O)c1c(O)c2ccccc2oc1=O,-0.75,-0.065
Cn1ccnc1S/C=C/C(=O)c1ccc(Cl)cc1,-0.3,-0.76
CC(=O)Nc1ccc(OCc2nnc(C)o2)cc1,-0.75,·
O=C(c1ccccc1F)N1CCNCC1,-0.25,0.18
Cc1n[nH]c(C)c1Cc1ccc(O)cc1,-0.75,0.12

More compounds
structure,AID504770,Ba CapD inh
Cc1ccc(C)n1NC(=O)c1ccncc1,-0.4,-0.045
N#C/C(=C/c1ccc(C(=O)O)cc1)C(=O)Nc1ccccc1,0.2,-0.53
CCN(CC)c1ccc(C(=O)N/N=C/c2ccc(OC)c(C)c2OC)cc1,·,22
COc1ccc(SCC(=O)Nc2ccc(N3CCOCC3)c(F)c2)cc1,·,-0.59
CN(CC(=O)N1CCc2ccccc2C1)c1ccccc1,0.1,0.55
O=C1NCCCCC1NS(=O)(=O)c1cccc2ccccc12 (stereo not given),0.15,1
O=C(/C(=N/O)n1cncn1)c1ccc(Cl)cc1Cl,-0.25,·
CCCC(C)NC(=O)N1CCOCC1 (stereo not given),0.8,-0.1
CCNC(=S)N1CCN(C(=O)c2ccco2)CC1,0.45,·
O=C1C2C3C=CC(CC3)C2C(=O)N1c1ccc2c(c1)OCO2 (stereo not given),·,0.14
NC(=O)c1c(N)sc2c1CCCC2,0.15,8.3
O=C(CSc1nccn1-c1cccc(Cl)c1)Nc1ccccc1,-1,·
Cc1cccn2c(=O)c(/C=C3\SC(=S)N(C(C)c4ccccc4)C3=O)c(N3CCCC3)nc12 (stereo not given),·,-0.23
O=c1c2ccccc2nc(-c2ccccc2)n1OCc1ccc(Br)cc1,2.5,0.52
CC(=O)Nc1ccc2nc(SCC(=O)Nc3c(C)cc(C)cc3C)sc2c1,·,-0.35
CC1(C)CC(=O)C2=C(C1)NC1=C(C(=O)CC(C)(C)C1)C2c1ccc(OCc2ccccc2Cl)cc1,·,16
O=C(CCCc1ccccc1)Nc1ccccc1C(=O)O,-0.4,0.7
CN(C)N1C(N)=C(C#N)C(c2ccc(Br)cc2)C2=C1CC(c1ccccc1)CC2=O (stereo not given),·,0.2
O=C1CSc2ccccc2N1,-0.25,·
NS(=O)(=O)c1ccc2nc(NC(=O)c3ccc(S(=O)(=O)N4CCc5ccccc5C4)cc3)sc2c1,·,14
OC1CCNCC1,-0.65,·
CC(=O)n1c(=S)[nH]c2ccccc21,0.1,-5.2*
CS(=O)c1ccc2c(c1)CCN2S(=O)(=O)c1cccc(C(F)(F)F)c1 (stereo not given),·,-0.44
CC(=O)N1C(=O)/C(=C2\SC(=S)N(C(C)C(=O)O)C2=O)c2ccccc21 (stereo not given),1.7,·
CCCCN(C)C(=O)C1CCN(c2nn3cc(-c4ccc(OC)cc4)nc3s2)CC1,-1.4,0.14
COc1ccc(-c2nc(N)s[n+]2-c2ccccc2)cc1,1.5,0.05
CCc1ccc(NC(=O)Cn2nc(-n3cccc3)c3c(C)cc(C)nc32)cc1,1.1,10
O=C(CCCc1nnc2c(=O)n(-c3ccc(Cl)cc3)ccn12)NCCN1CCCC1,0.55,0.24
O=c1c2ccccc2nc(Sc2ncccn2)n1-c1ccc(OC(F)F)cc1,0.65,·
CCCN(CCC)S(=O)(=O)c1ccc(C(=O)Nc2ccc(CC#N)cc2)cc1,·,0.39

The final 2 records of the part before are carried over, then new ones follow:
structure,AID504770,Ba CapD inh
O=c1c2ccccc2nc(Sc2ncccn2)n1-c1ccc(OC(F)F)cc1,0.65,·
CCCN(CCC)S(=O)(=O)c1ccc(C(=O)Nc2ccc(CC#N)cc2)cc1,·,0.39
Oc1ccc(Cl)cc1C1=Nc2ccccc2N=C(c2ccc(F)cc2)C1,·,0
CCC(c1nnnn1Cc1ccccc1)N1CCN(c2cccc(Cl)c2)CC1 (stereo not given),-0.55,·
COc1ccc(C2Nc3ccccc3C(=O)N2c2ccccc2)cc1COc1ccc(F)cc1 (stereo not given),·,3
COc1ccc(NC(=O)c2ccc(COCC(F)(F)C(F)F)cc2)cc1,0.4,-0.24
Cc1oc(-c2ccccc2)cc1C(=O)NC(C)C12CC3CC(CC(C3)C1)C2 (stereo not given),-0.7,0.04
O=c1[nH]c(SCc2cc(=O)n3ccccc3n2)nc2c1CCC2,0.4,0.56
COc1ccc(-c2c3c([nH]c(=O)c2C#N)-c2ccccc2CC3)cc1,-0.4,31
CCn1c(C(=O)N2CCC(C(=O)NCCc3ccc(OC)c(OC)c3)CC2)cc2sccc21,-1,-0.01
COc1ccc(-c2csc(C(=O)NC3CCCCC3)c2)cc1,·,-0.56
CCOC(=O)CC1Sc2ccccc2N=C1SCC(=O)Nc1ccc(Cl)cc1Cl (stereo not given),1.9,-1
CCOc1ccccc1OCC(=O)O,0.15,0.19
CCc1cc(Br)ccc1S(=O)(=O)NC1CCN(Cc2cc3c(cc2Cl)OCO3)C1 (stereo not given),·,0.59
Cc1nnsc1C(=O)Nc1ccc(CN2CCS(=O)(=O)CC2)cc1,-0.55,0.14
CN(C(=O)c1cccs1)C1CCS(=O)(=O)C1 (stereo not given),0.95,0.025
CCOC(=O)Cn1c(=O)cc(C)c2ccccc21,0.45,4.1
O=C1NC(=Nc2ccccc2)S/C1=C/c1cccc(C(F)(F)F)c1,·,-0.05
CC(=O)N1c2ccc(S(=O)(=O)Nc3ccc(CN4CCCCC4)cc3)cc2CC1C (stereo not given),-0.2,-0.92
CC1(C)NC(=O)N(c2ccccc2)N1,-0.35,0.76
NN1C=NN2C(SCC(=O)Nc3nnc(SCC(=O)Nc4ccc(Cl)c(Cl)c4)s3)=NNC12 (stereo not given),·,-0.09
COc1ccc2oc(=O)c(-c3nc(-c4ccc(Cl)cc4Cl)cs3)cc2c1,·,-0.58
Cn1nc(C(=O)Nc2sc3c(c2C(N)=O)CCC3)ccc1=O,-1.4,·
CC(C)(C)OC(=O)NCCN1CCNCC1,1.4,·
O=C(CSc1ccc(Cl)cc1)c1cc2ccccc2o1,-0.6,-1.1
O=C(O)C1CC1(C(=O)O)C(=O)O (stereo not given),0.05,-1.2
CNc1c(NC(=O)Nc2ccc(F)cc2)c(=O)oc2ccccc12,1.4,-0.17
CCN(C(=O)C12CC3CC(CC(C3)C1)C2)C1CCS(=O)(=O)C1 (stereo not given),2,·
COC(=O)C1=C(C)N(Cc2cccnc2)C(=O)/C1=C\c1cccc(Cl)c1,-0.5,-0.54
COc1cc2c(c([N+](=O)[O-])c1)NC(c1ccc(Br)cc1)C1CC=CC21 (stereo not given),·,0.2
Cn1c2c(c(=O)n(C)c1=O)CN(Cc1ccc3c(c1)OCO3)CN2,·,-0.035
Cc1nn(-c2ccccc2)c(C)c1/C=C(\C#N)S(=O)(=O)c1ccccc1,-0.65,-2.7
CC(C)(C)NNC(=S)Nc1cccc(C(F)(F)F)c1,·,0.66
CC(C)(C)C1=NN(C(=O)c2cccc(S(=O)(=O)N3CCOCC3)c2)C(=O)C1,0.15,·
CC1SC(C)C(=O)N(CC(=O)NC2CCCCC2)C1=O (stereo not given),0.05,0.25
O=C1CN(O)C(c2ccccc2)=c2cc(Cl)ccc2=N1,·,-0.4
Cc1ccnc(NS(=O)(=O)c2ccc(C3CCCCC3)cc2)c1,0.5,1.7
Cc1c(N=Nc2ccc(O)cc2)c(=O)n(-c2ccccc2)n1C,-0.4,·
CN(C)CCSc1nc2ccccc2c(=O)n1-c1ccccc1,0.55,0.48
C=CCc1cccc(C=NC2=C(C#N)CCC2)c1O,0.45,0.2
COc1ccccc1N(C)S(=O)(=O)c1ccc(C(=O)NC(C)(C)C)cc1,0,·
O=C1NC(=Nc2ccccc2Cl)S/C1=C/c1cccc([N+](=O)[O-])c1,·,-2.4
Cc1cc(NC(=O)C2CC(=O)N(C(C)(C)C)C2)no1 (stereo not given),-0.6,·

Four entries from above, with each value named:
mol: Cc1c(N=Nc2ccc(O)cc2)c(=O)n(-c2ccccc2)n1C
- AID504770: -0.4
- Ba CapD inh: ·
mol: CN(C)CCSc1nc2ccccc2c(=O)n1-c1ccccc1
- AID504770: 0.55
- Ba CapD inh: 0.48
mol: C=CCc1cccc(C=NC2=C(C#N)CCC2)c1O
- AID504770: 0.45
- Ba CapD inh: 0.2
mol: COc1ccccc1N(C)S(=O)(=O)c1ccc(C(=O)NC(C)(C)C)cc1
- AID504770: 0
- Ba CapD inh: ·
